Assay outcomes: PubChem BioAssay, ICCB-Longwood Screening Facility, Harvard Medical School
MgrA-DNA mod – alters Staphylococcus aureus MgrA binding to DNA | fluorescence polarization | inhibition, %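 (about 10 µg/mL by stock and volumes)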 | actives 0.13% (n = 84,000) | AID 602314;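 active = above 50% in either of two replicates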;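 note: 0% = protein plus DNA without compound and 100% = DNA alone without protein; higher means less MgrA bound to DNA so lower polarization; one replicate is shown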
Sa helicase inh – blocks Staphylococcus aureus DNA helicase; inhibition, %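 (tested at about 80 µM)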; purified S. aureus helicase, fluorescence unwinding assay; about half of the hits fall short of the stated cut; AID 485395; actives 0.05% (n = 120,000);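 active = both duplicates at 50% or more, or one of them with a favoured structure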;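 note: 0% = mean of negative control wells and 100% = mean of positive control wells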
Active calls of the source: *; / = not tested or not shown.

SMILES	MgrA-DNA mod	Sa helicase inh
CCc1ccc(C(=O)CCC(=O)O)s1	-4.9	10
O=C(OCCCN1CCCCC1)c1ccc(O)cc1	-5.2	-1
COc1cc(C(=O)COC(=O)C2CC(=O)N(Cc3ccco3)C2)cc(OC)c1OC (stereo not drawn)	/	-1
O=C(/C=C/c1ccc(S(=O)(=O)N2CCOCC2)cc1)N(c1ccccn1)C1CCCCC1	/	6
CCOc1ncccc1C(=O)NNc1ccc(S(=O)(=O)N2CCN(C)CC2)cn1	/	-13
ClCc1csc(-c2ccccc2)n1	-5.2	15
N#Cc1ccc(CSc2nnc(-c3sc4ccccc4c3Cl)o2)cc1	/	-4
CCn1c(CCNC(=O)c2ccco2)nc2ccccc21	/	0
COC(=O)CNC(=O)c1cn(-c2ccc(C)c(C)c2)c(=O)c2ccccc12	-0.3	10
COc1ccc2c(=O)c(-c3ccc4c(c3)OCCO4)coc2c1	/	-10
COc1ccc(OCC(=O)NC(C)CCc2ccccc2)cc1 (stereo not drawn)	-2.5	5
CC1=CC(=O)CC(C)(C)C1(O)/C=C/C(C)=C\C(=O)O (stereo not drawn)	1.4	/
Cc1ccc(CNC(=O)CN2CCN(Cc3cccc(C)c3)C2=O)cc1	/	22
Nc1nnc(CCN2C(=O)S/C(=C/c3ccccc3)C2=O)s1	-0.8	1
O=C1c2ccccc2C(=O)N1CCSc1n[nH]c(=O)n1Cc1ccccc1	/	-5
O=C(COC(=O)c1cc(=O)c2ccccc2o1)c1ccc2[nH]c(=O)[nH]c2c1	/	4
COc1ccccc1OCCn1c(CO)nc2ccccc21	0.7	15
CCCC1CC(=O)CC(=O)C1	/	5
CC(=O)N1CCCn2c1nc1ccccc12	0.6	8
COCCn1c(NC(=S)NC(=O)C2CC2)cc(=O)[nH]c1=O	/	-1
COC(CNC(=O)c1ccc(CS(=O)(=O)Cc2cccc(C)c2)o1)OC	/	7
CCCN(CCC)C(=O)c1cc2ccccc2cc1O	/	-19
O=C(NCCCn1ccnc1)c1cc2ccccc2o1	-3.2	15
O=C(O)Cc1csc(NC(=O)CSc2ccccc2)n1	1.9	/

By substructure, the entries above with a furan ring, fused or not
SMILES	MgrA-DNA mod	Sa helicase inh
COc1cc(C(=O)COC(=O)C2CC(=O)N(Cc3ccco3)C2)cc(OC)c1OC (stereo not drawn)	/	-1
CCn1c(CCNC(=O)c2ccco2)nc2ccccc21	/	0
COC(CNC(=O)c1ccc(CS(=O)(=O)Cc2cccc(C)c2)o1)OC	/	7
O=C(NCCCn1ccnc1)c1cc2ccccc2o1	-3.2	15

Other compounds.
SMILES	MgrA-DNA mod	Sa helicase inh
COC(=O)c1cc(NC(=O)c2c(Cl)nc3sccn23)cc(C(=O)OC)c1	/	15
Clc1ccc(C2=NN(c3ccccc3)C(c3cccs3)C2)cc1 (stereo not drawn)	15	/
COc1ccc(Oc2cc(C(F)(F)F)nc3cc(C(C)(C)C)nn23)cc1	0.0	/
O=C(O)COCC(=O)Nc1ccccc1SCc1noc(-c2cccs2)n1	/	-33
Cc1cc(C(=O)N2CCc3ccccc32)no1	-2.5	14
Cc1ccc(Cn2c(C)c3cnn(CC(=O)NCCCN4CCCCCC4)c(=O)c3c2C)cc1	/	12
O=C(C1CC1)N1CCc2cc(Br)cc(S(=O)(=O)NCCCN3CCN(Cc4ccccc4)CC3)c21	/	4
N#C/C(=C\C=C\c1ccco1)c1nc(-c2ccccc2)cs1	-1.4	-4
CC12CCC(C(=O)Nc3ccc(Cl)cn3)(CC1=O)C2(C)C (stereo not drawn)	0.2	10
CCOc1cc(/C=c2/sc3nc4ccccc4n3c2=O)ccc1OC	1.8	7
N#Cc1c(SCC(=O)Nc2ccccc2)nsc1SCC(=O)Nc1ccccc1	/	12
Nc1nc(-c2ccccc2)cc(=O)[nH]1	/	3
Cc1ccc(NC(=O)COC(=O)COc2ccc(Cl)cc2)cc1C	1.3	35
COc1ccc(-c2cc(C3CCNCC3)[nH]n2)cc1	0.9	/
CCOC(=O)c1c(NC(=O)c2ccc(Cl)s2)sc(C)c1C	/	9
O=C(NC12CC3CC(CC(C3)C1)C2)N1CCC(CN2CCCCC2)CC1	-1.3	3
COc1ccc(C(CC(=O)O)Sc2ncn[nH]2)cc1 (stereo not drawn)	1.3	25
C=NC(C(=O)NC1C(=O)N2C1SC(C)(C)C2C(=O)O)c1ccccc1 (stereo not drawn)	8.1	/
CSc1nnc2c(n1)OC(c1ccc([N+](=O)[O-])o1)Nc1ccccc1-2 (stereo not drawn)	21	/
Cc1ccc2c(c1)-c1nc3[nH]c(=O)[nH]c(=O)c3cc1C(O)O2 (stereo not drawn)	/	-4
O=C(NCCCN1CCCC1)c1cc2c(s1)-c1ccccc1OC2	-2.9	8
O=C(Nc1nccs1)c1cccc(Cl)c1	-0.5	/
CCN1CCc2c(sc(NC(=O)c3ccc4c(c3)CCCC4)c2C(N)=O)C1	/	-2
NNc1ccc2c(Cl)cc(Cl)c(O)c2n1	4.6	21

A draw from above in order of formula weight, descending.
SMILES	MgrA-DNA mod	Sa helicase inh
CCN1CCc2c(sc(NC(=O)c3ccc4c(c3)CCCC4)c2C(N)=O)C1	/	-2
CSc1nnc2c(n1)OC(c1ccc([N+](=O)[O-])o1)Nc1ccccc1-2 (stereo not drawn)	21	/
Cc1ccc2c(c1)-c1nc3[nH]c(=O)[nH]c(=O)c3cc1C(O)O2 (stereo not drawn)	/	-4

Additional structures follow:
SMILES	MgrA-DNA mod	Sa helicase inh
O=C(COc1ccc(-c2nnco2)cc1)NC(=O)NCc1ccco1	/	-8
COC(=O)c1ccc(CSCC(=O)Nc2cc(OC)cc(OC)c2)o1	/	-11
Cn1c(=NC(=O)Cc2csc(-c3cccnc3)n2)sc2ccccc21	/	11
CCc1ccc(OCC(O)CN2CCN(Cc3ccc4c(c3)OCO4)CC2)cc1 (stereo not drawn)	/	6
Cc1n[nH]c(=S)n(/N=C/C2=CCC3CC2C3(C)C)c1=O (stereo not drawn)	/	2
CCOc1ccccc1NC(=O)C(NC1CCS(=O)(=O)C1)c1ccccc1 (stereo not drawn)	/	-8
COc1ccc(C(=O)OCc2nc3ccccc3s2)cc1OC	/	1
Cc1cc(C)nc(SCC(=O)OCCN2C(=O)c3ccccc3C2=O)n1	/	-2
COc1ccc2[nH]c3c(=O)n(CC(=O)NCCc4ccc(OC)c(OC)c4)c(=S)[nH]c3c2c1	0.8	5
COCCCNc1ncnc2onc(-c3ccc(Cl)cc3)c12	/	-27
Cc1ccc2c(c1)CCCN2C(=S)Nc1cccc(C(F)(F)F)c1	1.1	/
CCc1ccc(OCC(=O)Nc2sc3c(c2C(=O)OC)CCCC3)cc1	5.8	3
O=C(CSc1nc2cc(S(=O)(=O)N3CCCCC3)ccc2o1)Nc1ccccc1F	/	10
COC(=O)c1ccc(Cn2c(C)cc(C)[n+]2C)o1	/	-5
O=C(CCNS(=O)(=O)c1cccs1)NC1CCCc2ccccc21 (stereo not drawn)	/	-8
COc1ccc(Cc2nnc(SCc3cccc(C(=O)O)c3)o2)cc1OC	2.1	5
CCOC(=O)/C=C(\C)Nc1ccc2cn[nH]c2c1	1.4	/
COc1ccc(Cc2nnc(SCC(N)=O)o2)cc1	-0.4	9
Cc1ccc(C)c(N2CCN(C(=O)CN3CC(c4ccccc4)CC3=O)CC2)c1 (stereo not drawn)	-2.4	1
COC(=S)Nc1ccccc1Cl	3.3	/
CC(=O)Nc1cccc(C(=O)OCCN2C(=O)c3ccccc3C2=O)c1	/	-6
Cn1c(=O)[nH]c(=O)c2c1nc(SCC(=O)c1ccc([N+](=O)[O-])cc1)n2CC(O)COc1ccc(Cl)cc1 (stereo not drawn)	-2.0	/
O=C1CSC(=Nc2ccccc2C(F)(F)F)N1	/	-32
O=C(CSCc1ccc(Cl)cc1)NCc1ccc2c(c1)OCO2	-2.2	-11
CCOC(=O)C1CCCN(C(=O)c2ccc3c(c2)NC(=O)c2ccccc2S3)C1 (stereo not drawn)	1.8	15
O=C1/C(=N\n2cnc3c(cnn3-c3ccccc3)c2=O)c2ccccc2N1CO	/	8
Cc1ccc(C2NC(=S)NC3=C2N2CCC3CC2)cc1 (stereo not drawn)	/	19
N#C/C(=C\c1ccc[nH]1)S(=O)(=O)c1ccccc1	-0.5	13
CC1(C)CC(=O)C2=C(C1)N(CCN1CCOCC1)C1=C(C(=O)CC(C)(C)C1)C2c1cccc(Cl)c1	0.6	3
CC1=C(C)SC(=C(C#N)c2nc(-c3ccccc3)cs2)S1	/	-21
O=C(CSc1nnc(Cc2ccccc2)o1)N(c1ccccc1)c1ccccc1	-1.3	-5
CCCn1nc(C(=O)Nc2ccc3nc(N4CCOCC4)sc3c2)ccc1=O	/	27
O=C(CCOc1ccccc1)NCc1ccco1	2.8	2
Cc1ccc(C(=O)[C@@H]2[C@@H](C(C)(C)C)C(C#N)(C#N)[C@@]3(C)C=Cc4ccccc4N23)cc1	-0.9	0
COC(=O)Cc1c(C(=O)OC)sc(N)c1C#N	/	4
Cc1cc(C(=O)NNC(=O)C2CCN(c3nccc(C(F)(F)F)n3)CC2)nn1C(C)(C)C	-0.7	/

Some values from above:
O=C1/C(=N\n2cnc3c(cnn3-c3ccccc3)c2=O)c2ccccc2N1CO @ Sa helicase inh: 8
CCCn1nc(C(=O)Nc2ccc3nc(N4CCOCC4)sc3c2)ccc1=O @ Sa helicase inh: 27
Cc1ccc(C(=O)[C@@H]2[C@@H](C(C)(C)C)C(C#N)(C#N)[C@@]3(C)C=Cc4ccccc4N23)cc1 @ MgrA-DNA mod: -0.9

(more compounds)
SMILES	MgrA-DNA mod	Sa helicase inh
COc1ccc(N=C(N(C)C)P(=O)(N(C)C)N(C)C)cc1	/	-1
COc1ccc2cc3cc(C(=O)NCCN4CCOCC4)oc3nc2c1	/	7
COc1cc(C(=O)N(Cc2ccccc2)Cc2cc3ccc(C)cc3[nH]c2=O)cc(OC)c1OC	-1.8	-1
Cc1cc(C(=O)CSc2cc(C(=O)c3nccn3C)c3ccccc3n2)c(C)n1C1CC1	/	-5
CC1=C(C(=O)OCc2ccc(C)cc2)C(c2cccc(Oc3ccccc3)c2)NC(=O)N1 (stereo not drawn)	1.1	/
CCCSc1ncccc1C(=O)O	1.0	/
Cc1ccc(C)n1-c1nnc(N2CCCC(C(=O)O)C2)s1 (stereo not drawn)	2.6	-16
CC(c1ccccc1)n1c(SCC(=O)c2ccc(F)cc2)n[nH]c1=O (stereo not drawn)	-0.7	/
COc1ccc(C2OC(COc3ccc4c(C)cc(=O)oc4c3)=NN2C(C)=O)cc1 (stereo not drawn)	/	-6
Cc1ccc(S(=O)(=O)N(C)CCO)cc1-c1nnc2c3ccccc3c(C)nn12	-7.0	6
CCCn1c2ccccc2n2c(C(=O)c3cccs3)c(C)nc12	-8.3	18
COc1ccc(C(=O)N2CC(C)N(C(=O)c3ccc(OC)c(OC)c3)CC2C)cc1OC (stereo not drawn)	1.1	5
O=C(/C=C/c1ccc(F)cc1)N(CCO)c1nc2ccccc2[nH]1	/	-5
CC(=O)Nc1ccc(NC(=O)CSc2cccc[n+]2[O-])cc1	-1.4	1
Cc1sc2nc(CC(=O)NN)[nH]c(=O)c2c1C	/	4
COc1ccc(-c2cc(-c3ccccc3)c(-c3ccccc3)nn2)cc1CN1CCOCC1	-0.1	/
COc1ccccc1NC(=O)CN(Cc1ccco1)C(=O)c1ccc(OC)c(OC)c1	/	4
COc1ccc(-c2ccc(CNC3CC3)o2)cc1Cl	-2.1	3
Cc1ccsc1C(=O)OCC(N)=O	2.5	0
CCCCNC(=O)c1cnn(-c2cccc(F)c2)c1-n1cccc1	/	15
CCN(CC)C1=N/C(=C/c2ccccc2)C(=O)N1c1ccc(Cl)cc1	-7.3	6
CN(Cc1ccccc1)C(=O)c1cc(-c2ccc(Cl)cc2)on1	0.9	9
O=C(NCc1ccncc1)c1cc2ccccc2nc1Cl	2.2	25
O=C1N/C(=C\c2ccccc2Cl)C(=O)N1Cc1ccc(Cl)cc1	3.4	1
NS(=O)(=O)c1ccc(CNC(=O)c2ccc(=O)[nH]c2)cc1	/	-3
O=C1c2ccccc2C(=O)N1CC1OCc2ccccc2CO1	2.0	-2
COc1ccc(/C=C2\SC(=S)N(CCCCCC(=O)N3CCN(C)CC3)C2=O)cc1	/	3
CCC(C)c1ccc(Oc2ccc(S(=O)(=O)N3CCCCC3)cn2)cc1 (stereo not drawn)	/	-9
O=S(=O)(NCCCN1CCN(Cc2ccccc2)CC1)c1cccc(Cl)c1Cl	-2.0	/
O=C(O)c1ccc(C(=O)O)c(C(=O)c2ccccc2)c1	/	2
CCCCNC(=O)c1cnc2n(c1=O)CCS2	/	6
Cc1cc(NC(=O)NC2CC(=O)N(C3CCCC3)C2)ccc1Br (stereo not drawn)	-1.5	-6
O=C(c1cn[nH]c1)c1cc(F)ccc1O	3.4	-27
Cc1c(NC(=O)/C=N/O)c(=O)n(-c2ccccc2)n1C	2.2	/
O=C(Cn1cnc2ccccc21)OCc1ccc(Br)cc1	/	10
O=c1[nH]c(CN2CCN(Cc3ccccc3)CC2)nc2sc3c(c12)CCC3	/	-5
CC1=CC(=O)C(C(=O)/C=C/c2cn(-c3ccccc3)nc2-c2cc3ccccc3o2)C(=O)O1 (stereo not drawn)	/	-131

Only part of the results is shown; rates above refer to the full screens.
